HPGD block: blocks human HPGD enzyme activity | purified HPGD, NADH fluorescence kinetic, PGE2 substrate | P15428 | Potency, µM, without a hit: top-dose activity change, negative = inhibition, most hits filed as inhibitors | AID 894 | 150,000 compounds, 4.3% hits; active = well fitted inhibition curve with a large enough effect (not every such curve was filed as active); inconclusive = small, poorly fitted or top-dose-only effect, or another doubt; inactive = no such curve, though single readings can be large or run the other way;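 note: top concentration of the series not given in the record; plate controls included wells without enzyme; inactives centre near -10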
Target sequence (P15428 whole entry, looked up): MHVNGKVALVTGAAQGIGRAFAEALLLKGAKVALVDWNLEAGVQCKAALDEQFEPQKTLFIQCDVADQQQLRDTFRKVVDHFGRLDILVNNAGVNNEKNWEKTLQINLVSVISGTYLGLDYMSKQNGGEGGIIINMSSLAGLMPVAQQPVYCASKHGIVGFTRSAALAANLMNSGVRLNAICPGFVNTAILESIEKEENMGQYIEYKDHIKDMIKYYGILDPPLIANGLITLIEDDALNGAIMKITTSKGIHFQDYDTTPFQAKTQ
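20 nM HPGD preincubated 15 min at room temperature with compound in 50 mM Tris-HCl pH 8, 0.01% Tween 20. Started with 1 mM NAD+ and 30 uM prostaglandin E2; NADH fluorescence (360/450 nm) read 5 times over 30-s intervals, last minus first.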
Numbers without * were called inactive; ? = inconclusive; & = joins results of further samples. % is set by controls: 0 for no effect and ±100 for the full control effect; potency is the fitted concentration of half-maximal effect. These rows are one share of the data. The share of hits here may be higher or lower than overall.

HPGD block | Compound
-12% | O=C(Nc1nc(-c2ccccc2)cs1)C1COc2ccccc2O1 (stereo not drawn)
8.9µM* | COc1ccc(N2CSC3=C(C#N)C(c4cccc(OC)c4OC)CC(=O)N3C2)cc1 (stereo not drawn)
-16% | Cc1nc(C)n(CC(O)COc2ccc(C(=O)c3ccccc3)cc2)n1 (stereo not drawn)
0% | CCOC(=O)c1c(/N=C/c2cccc(C)c2O)sc2c1CCN(C)C2
? | CCOc1ccc2nc(NS(=O)(=O)c3ccc(NC(C)=O)cc3)sc2c1
-14% | Cc1csc(OCC(=O)Nc2ccc(C)c(C)c2)n1
-8% | Cc1ccccc1OCC(=O)OCC(=O)c1ccc(-c2ccccc2)cc1
-1% | CCc1ccc(/C=N/NC(=O)C(=O)NCCCN2CCOCC2)cc1
-20% | O=[N+]([O-])c1ccc(/C=N/Nc2nc(N3CCCCCC3)nc(N3CCCCCC3)n2)o1
-18% | CCc1nn(C(C)C(=O)NC(C)CCc2ccco2)c(=O)c2cc3occc3n12 (stereo not drawn)
-9% | O=C1N(CC(=O)N2CCc3ccccc32)CCN1Cc1ccccc1Cl
-15% | CN(C(=O)c1ccccc1)c1ccc(OCC(=O)NC2CCS(=O)(=O)C2)cc1 (stereo not drawn)
-6% | Cc1ccc(NC(=O)C2CC(=O)N/C(=N/N=C/c3ccco3)S2)cc1C (stereo not drawn)
-7% | Cc1ccccc1C(=O)NC(=S)NCC1CCCO1 (stereo not drawn)
-11% | c1ccc(-n2nnnc2Oc2ccc(-c3nnco3)cc2)cc1
-19% | COc1ccccc1OCCC(=O)OCC(=O)Nc1ncc(Cl)cc1Cl
-9%&-1% | COC(=O)[C@H]1C[C@@H]1[C@H](NC(=O)c1cnccn1)c1ccccc1
-6% | O=C(Nc1nnc(SCC(=O)N2CCCc3ccccc32)s1)c1ccccc1
? | O=S(=O)(NCCOCC(F)(F)F)c1ccc2oc3ccccc3c2c1
-9% | C=CCn1c(COc2ccc(F)cc2)nnc1SCC(=O)c1c[nH]c2c(CC)cccc12
-5% | O=S(=O)(/N=C(\Nc1ccc(F)cc1)C(F)(F)F)c1ccccc1
-21% | CCC/C(O)=C1\C(=O)CC(c2ccccc2)CC1=NCCc1c(C)[nH]c2ccccc12 (stereo not drawn)
? | CC(C)(C)OC(=O)c1c(N)n(CCCN2CCCC2=O)c2nc3ccccc3nc12
14µM* | Cc1cc(=O)[nH]c(SCc2cccc(Br)c2)n1
-9% | Cc1cc(=O)oc(C)c1C(=O)NCCC1=CCCCC1
-13% | O=C(NC1CCC(NC(=O)C2CCCO2)CC1)C1CCCO1 (stereo not drawn)
-7% | Cc1sc2nc(SCC(=O)NCc3ccco3)n(Cc3ccccc3)c(=O)c2c1C
-3% | COc1ccc(N2CC(C(=O)Nc3ccccc3C(=O)NCc3ccco3)CC2=O)cc1 (stereo not drawn)
16µM* | O=c1cc(-c2cccc(O)c2O)oc2ccccc12
-3% | NC(=S)N/N=C/c1cc([N+](=O)[O-])ccc1OCCOc1ccccc1
-2% | CC(C)C(NC(=O)CN(c1cccc(F)c1)S(C)(=O)=O)C(C)C
-6% | Cc1ccccc1[C@@H]1C(C#N)=C(N)S[C@H]1C(=O)c1ccccc1
-15% | COC(=O)c1c(NC(=O)CCC(=O)O)sc2c1CCCCC2
? | COc1ccc(-n2ncc3c(=O)n(CC(=O)N4CCCc5ccccc54)cnc32)cc1
-7% | Clc1ccc(C2[C@H]3CN(CC4CCCCC4)[C@H](c4ccccc4)C34CC2(c2ccccc2)C4)cn1 (stereo partly drawn)
1% | CCCS(=O)(=O)N1CCC(C(=O)NCc2cccnc2)CC1
-19% | COc1nc(N)c(S(=O)(=O)c2ccc(C)cc2)cc1C#N
-10% | O=C1NCCN1C(=O)c1ccccc1F
-20% | C=CCc1cccc(/C=C/c2cc(=O)c3ccccc3[nH]2)c1O
0% | CC(C)[C@H](NC(=O)[C@H](CCCN=C(N)N)NC(=O)NC(Cc1ccccc1)C(=O)O)C(=O)NC(C=O)CCCN=C(N)N (stereo partly drawn)
-22% | CCn1c(Cc2ccccc2)nnc1SCC(=O)Nc1ccc(C)cc1
-2% | CCCCOC(=O)CSCC(=O)Nc1cc(C)on1
? | CCOC(=O)c1cc(-c2ccc(Cl)s2)nc2c1c(C)nn2C
-19% | CSc1ccccc1NC(=O)Nc1cccc(Cl)c1
-3% | CCCN1C(=O)SC(CC(=O)Nc2ccc(Br)cc2)C1=O (stereo not drawn)
32µM* | CCS(=O)(=O)c1ccc2oc(SCC(=O)NC3CCCC(C)C3C)nc2c1 (stereo not drawn)
-3% | CN1C(=O)NC(NC(=O)c2ccncc2)(C(F)(F)F)C1=O (stereo not drawn)
-18% | CN(Cc1ccco1)c1ccnc(-c2ccoc2)n1
? | Cn1cccc1CC(=O)N/N=C\c1cccs1
? | COCCN(Cc1cc2cc3c(cc2nc1Cl)OCO3)C(=O)Nc1ccccc1OC
? | COc1ccc(/C=N/NC(=O)c2cc(-c3ccc(Cl)cc3)n[nH]2)cc1OC
? | Cc1ccc(C)c(-n2nnnc2SCC(=O)NCCC2=CCCCC2)c1
-13% | C/C(N)=C(/C#N)C(=O)CSc1nnc(-c2ccccc2Br)o1
-5% | Cc1c(C#N)c2ncn(Cc3ccccc3)c(=O)c2n1-c1ccccc1
-5% | CCC(=O)Nc1cccc(Br)c1
-9% | Cc1cc(-c2ccccc2)nc(N/N=C/c2ccc([N+](=O)[O-])cc2)n1
-7% | COc1ccc(N2C(=O)CS/C2=C\[N+](=O)[O-])cc1
-7% | O=C(NCc1ccccc1)C1CCCN(S(=O)(=O)c2cccnc2)C1 (stereo not drawn)
-8% | CC(CCc1ccccc1)NC(=O)COc1ccc(S(=O)(=O)N2CCOCC2)cc1[N+](=O)[O-] (stereo not drawn)
-27% | CC(C)CCn1cnc2c(NCc3ccccc3)ncnc21

Remaining list, next part
HPGD block | Compound
-5% | O=C(CN1CCC(n2nnc3cc(F)ccc32)CC1)NC1CC1
-3% | CCCc1nc(NCc2ccncc2)c2nnn(Cc3ccccc3F)c2n1
-25% | C/C(=N/NC(=O)c1cccc(C)c1)c1c(O)cc(C)oc1=O
-7% | C#CCSc1nc2[nH]ncc2c(=O)[nH]1
-2% | Cc1cc(N2CCN(C3CCCCC3)CC2)n2nc(C)nc2n1
-1% | Cc1cc(S(=O)(=O)n2cnc3ccccc32)c(C)cc1Cl
-10% | Fc1ccc(-c2cc(-c3nnc4n3CCCCC4)c3ccccc3n2)cc1
14µM* | O=c1[nH]c(C2CCCN(S(=O)(=O)c3ccccc3)C2)nc2c1nnn2Cc1ccccc1 (stereo not drawn)
-3% | CN(Cc1ccccc1)S(=O)(=O)c1ccc(NS(C)(=O)=O)cc1
-12% | CCc1ccc(-c2cn(-c3nc(C)cc(C)n3)c(=N)o2)cc1
0% | Cc1onc(-c2c(F)cccc2Cl)c1C(=O)Nc1c(C)n(C)n(-c2ccccc2)c1=O
-7% | CCCC(=O)Nc1cccc(NC(=O)c2cccc([N+](=O)[O-])c2C)c1
-12% | Cc1ccc(-c2cn3cc([N+](=O)[O-])ccc3n2)cc1
-16% | CC1(C)NC(=O)N(CCOc2cccc(Oc3ccccc3)c2)C1=O
-21% | O=c1c(-c2ccc(F)c(F)c2)nc2cncnc2n1-c1ccccc1
25µM* | N=C1/C(=C\c2ccc(SCc3ccco3)o2)C(=O)N=C2SC=NN12
-19% | COc1ccc(NC(=O)CSc2nc3ccccc3c(=O)n2-c2ccc3c(c2)OCO3)c(OC)c1
? | Cc1nn(-c2ccccc2)c(Cl)c1/C=N/Nc1ccc(Cl)c(C(=O)O)c1
-2% | Cn1ncc(C#N)c1/N=C/N1CCCCCC1
-8% | Cc1csc(NC(=O)Cc2coc3cc(C)c(C(C)C)cc23)n1
-29% | Cc1c(NC(=O)CSc2ccc(Cl)cc2)cccc1-c1nc2ncccc2o1
-10% | CNc1nc(C)c(C#N)c(-c2ccccc2)c1C(C)=O
25µM* | COC(=O)C(N)CS (stereo not drawn)
? | COc1ccc(/C=C/C(=O)Nc2cc(S(=O)(=O)N3CCCCC3)ccc2N2CCCCC2)cc1OC
-9% | COc1ccc(-n2c(C)cc(C(=O)CN3C(=O)NC4(CCc5ccccc54)C3=O)c2C)cc1 (stereo not drawn)
-26% | O=[N+]([O-])c1cc(C(F)(F)F)ccc1NCCc1c[nH]c2ccccc12
-8% | CN(C)c1nc(C(=O)OCCO)nc(N(C)C)n1
? | COCCCn1c(SCc2cccc(C(F)(F)F)c2)nc2cc(OC)c(OC)cc2c1=N
-4% | COc1ccc(Cn2c(CCC(=O)O)nc3cccnc32)cc1
3% | COc1ccccc1C(=O)N1CC2(C)CC1CC(C)(C)C2 (stereo not drawn)
-15% | Cc1cc(C)c2[nH]c(O)c(N=NC(=S)NCC3CCCO3)c2c1 (stereo not drawn)
-14% | Cc1ccc(S(=O)(=O)N(C)CCCC(=O)n2nc(C)cc2C)cc1
2%&-3% | CN(C)CCCCSC(=N)N
-7% | O=C1c2ccccc2C(=O)C1(O)O
-8% | C=CCNC(=S)NNC(=O)c1ccc(OCCCC)cc1
-14% | CCn1c(CNC(=O)c2ccc3c(c2)OCO3)nnc1SCC(=O)Nc1cc(C)ccc1OC
-9% | Cn1nc([N+](=O)[O-])nc1N1CCOCC1
-29% | CCOCCn1c(=NC(=O)c2cc3ccccc3oc2=O)sc2cc(S(N)(=O)=O)ccc21
-7% | S=C(Nc1ccc(Cl)cc1)c1sc(N2CCCCC2)nc1N1CCOCC1
? | CC1(c2ccc3ccccc3c2)NC(=O)N(CC(=O)NCc2cccs2)C1=O (stereo not drawn)
-5% | COc1ccc(C(=O)N2CCC3(CCN(Cc4ccccc4OC)CC3)CC2)cc1
-26% | CCOc1ccccc1N1CCN(C(=O)c2ccc3[nH]c4c(c3c2)CCCC4)CC1
-18% | CCOc1ccc(C(=O)NCc2ccccc2)cc1Br
-2% | COc1ccc(N(C(C)C(=O)NC2CCCCCC2)S(C)(=O)=O)cc1 (stereo not drawn)
-12% | CCC(C(=O)OCC(=O)Nc1cc(Cl)cc(Cl)c1)c1ccccc1 (stereo not drawn)
-17% | Cc1nc2ccccc2c(=O)n1/N=C/c1c(O)ccc2oc3c(c12)CCCC3
-6% | CCN(CCNC(=O)C1CCN(Cc2nc(-c3ccc(Cl)cc3)oc2C)CC1)c1ccccc1
1% | CCCCS(=O)(=O)/C=C\C1C2C=CC(C2)C1S(=O)(=O)CCCC (stereo not drawn)
-10% | CC(=O)Nc1ccc(S(=O)(=O)NC(C(=O)O)C2=CCC=CC2)cc1 (stereo not drawn)
-15% | O=C(C1CC(c2ccc(F)cc2)=NO1)N1CCCCC1 (stereo not drawn)
-1% | CCOC(=O)COc1ccc(S(=O)(=O)N2CCN(c3ccc(F)cc3)CC2)cc1
3.2µM* | CCc1cc2c(-c3ccccc3)cc(=O)oc2cc1OC(=O)c1cccs1
-2% | CN(C(=O)CSc1nc(-c2ccccc2)cs1)C1CCS(=O)(=O)C1 (stereo not drawn)
? | Cc1ccc2cc(C#N)c(N3CCCN(S(=O)(=O)c4ccc(F)cc4)CC3)nc2c1
-12% | Cc1nc2c3ccccc3[nH]c(=O)n2n1
-8% | Nc1ccc(-c2ccc(N)c(O)c2)cc1O
-1% | COc1ccc(N2CCN(C(=S)Nc3cc(C)ccc3C)CC2)cc1
-14% | CCc1cccc2cc3c(N)c(C(=O)Nc4ccc(S(=O)(=O)N5CCCC5)cc4)sc3nc12
-2% | CC1(C)OC[C@@H]2O[C@H](n3cnc4c(N)nc(Cl)nc43)[C@@H](OS(C)(=O)=O)[C@@H]2O1
22µM* | O=C(COc1ccccc1)NCCSCc1ccco1

Reformatted: entries from further up
structure | HPGD block
COc1ccccc1OCCC(=O)OCC(=O)Nc1ncc(Cl)cc1Cl | -19%
COC(=O)[C@H]1C[C@@H]1[C@H](NC(=O)c1cnccn1)c1ccccc1 | -9%&-1%
O=C(Nc1nnc(SCC(=O)N2CCCc3ccccc32)s1)c1ccccc1 | -6%
O=S(=O)(NCCOCC(F)(F)F)c1ccc2oc3ccccc3c2c1 | ?
C=CCn1c(COc2ccc(F)cc2)nnc1SCC(=O)c1c[nH]c2c(CC)cccc12 | -9%

An excerpt from above in order of the HPGD block value, low to high:
HPGD block | Compound
-15% | O=C(C1CC(c2ccc(F)cc2)=NO1)N1CCCCC1 (stereo not drawn)
-14% | CCc1cccc2cc3c(N)c(C(=O)Nc4ccc(S(=O)(=O)N5CCCC5)cc4)sc3nc12
-12% | Cc1nc2c3ccccc3[nH]c(=O)n2n1
-10% | CC(=O)Nc1ccc(S(=O)(=O)NC(C(=O)O)C2=CCC=CC2)cc1 (stereo not drawn)
-6% | CCN(CCNC(=O)C1CCN(Cc2nc(-c3ccc(Cl)cc3)oc2C)CC1)c1ccccc1
-2% | CN(C(=O)CSc1nc(-c2ccccc2)cs1)C1CCS(=O)(=O)C1 (stereo not drawn)
-1% | COc1ccc(N2CCN(C(=S)Nc3cc(C)ccc3C)CC2)cc1

Additional entries follow.
HPGD block | Compound
? | COCC(=O)N1CCC2(CCCN(c3ccc(-c4ccccc4)cc3)C2)CC1
-15% | O=C(COC(=O)C12CC3CC(CC(C3)C1)C2)Nc1ccc(OC(F)F)cc1
-6% | CCC(c1nc2ccccc2c(=O)n1-c1cccnc1)N1C(=O)c2ccccc2C1=O (stereo not drawn)
-18% | COC(=O)c1c(NC(=O)COC(=O)c2ccc(C)s2)sc2c1CCCCC2
-1% | Cc1cc(NC(=O)COc2cccc3cccnc23)no1
-15% | Cc1cc(C)c2cccc(NC(=S)NC(=O)c3ccccc3)c2n1
? | COc1ccc(-c2ccc(-c3cc(=O)oc4cc(OC)c(OC)c(OC)c34)cc2)cc1OC
-18% | Cn1c(=O)[nH]c(=O)c2c1nc(Br)n2CCOc1ccccc1

Bioassay records (PubChem)
